TRPV1 PAM: potentiators of human vanilloid receptor 1 (TRPV1); Q8NER1; TRPV1-expressing cells, Fluo-8 calcium influx, capsaicin EC20 potentiation; host cell line not named in the record; control for the full effect not named in the record; hit rate 0.02% among 320,000; AID 540277; potentiation, % at 8.33 µM; active means potentiation above 80%; inconclusive means 30% to 80%; inactive means below 30%; note: 0% is about no effect
Target sequence (Q8NER1 whole entry, looked up): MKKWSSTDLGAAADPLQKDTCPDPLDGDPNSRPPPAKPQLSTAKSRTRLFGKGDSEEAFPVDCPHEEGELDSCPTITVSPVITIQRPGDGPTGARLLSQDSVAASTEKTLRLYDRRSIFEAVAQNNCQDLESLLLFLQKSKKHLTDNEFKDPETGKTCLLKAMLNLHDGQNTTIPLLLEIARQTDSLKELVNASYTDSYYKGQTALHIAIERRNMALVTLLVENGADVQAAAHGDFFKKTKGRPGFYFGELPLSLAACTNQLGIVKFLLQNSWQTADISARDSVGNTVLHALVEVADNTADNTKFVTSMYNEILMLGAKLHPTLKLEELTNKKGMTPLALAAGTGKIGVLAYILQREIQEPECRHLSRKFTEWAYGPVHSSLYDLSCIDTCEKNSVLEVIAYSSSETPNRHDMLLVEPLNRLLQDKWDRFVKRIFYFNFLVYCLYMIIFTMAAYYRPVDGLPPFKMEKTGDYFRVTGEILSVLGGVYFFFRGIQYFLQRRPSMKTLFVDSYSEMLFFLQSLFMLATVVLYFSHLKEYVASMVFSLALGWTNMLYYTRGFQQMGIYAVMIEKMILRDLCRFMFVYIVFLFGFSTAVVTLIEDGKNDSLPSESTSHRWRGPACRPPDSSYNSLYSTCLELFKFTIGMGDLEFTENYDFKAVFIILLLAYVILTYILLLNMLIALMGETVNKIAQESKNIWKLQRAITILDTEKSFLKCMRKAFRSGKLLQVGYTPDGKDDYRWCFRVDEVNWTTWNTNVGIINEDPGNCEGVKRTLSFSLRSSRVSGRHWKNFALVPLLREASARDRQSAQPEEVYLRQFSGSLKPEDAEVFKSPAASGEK
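TRPV1-expressing cells were cultured overnight at 35.5C and loaded with Fluo-8 calcium dye for 40 to 90 min at room temperature. After a 10 s baseline, compound was added and calcium influx was read kinetically for 3 min (ex 480/em 520 nm).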
Sfp inh: Sfp phosphopantetheinyl transferase inhibition. Q9F4F7. Biochemical Sfp PPTase activity, qHTS. Potency, µM, for the others: max response, negative = inhibition, actives largely listed as inhibitors. hit rate 3.5% among 310,000. AID 1490; active = well fitted inhibition curve with a large enough effect; inconclusive = small, poorly fitted or top-dose-only effect, or another doubt; inactive = no such curve, though single readings can be large or run the other way;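 note: the enzyme is Sfp with the accession as filed and its product quenches rhodamine fluorescence; potency is the fitted concentration of half-maximal effect; 0% = enzyme reaction without inhibitor and -100% = no enzyme wells; top concentration of the series not given in the record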
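Fluorescence-quenching assay: 15 nM Sfp-PPTase preincubated 15 min at room temperature with compound, then 5 uM rhodamine-CoA and 12.5 uM BHQ-2-labelled YbbR peptide added. Fluorescence (ex 525/em 598 nm) read at start and after 30 min; difference gives rate.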
gsp antagonist: antagonizes gsp, the McCune-Albright syndrome mutation; hit rate 0.4% among 340,000; gsp-mutant cells, cAMP HTRF, 30 min; control for the full effect not named in the record; Potency, µM (series often up to 76.9 µM), for the others: top-dose activity change, negative = inhibition, most hits filed as inhibitors; active = falling curve of any shape with a large fitted effect; inconclusive = falling curve, mostly with a smaller effect; inactive = flat or rising curve; cell line not stated here;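 note: intracellular cAMP measured with PDE inhibitor Ro 20-1724 present during compound exposure; potency is the fitted concentration of half-maximal effect; % is set by controls: 0 for no effect and ±100 for the full control effect; nearly all actives have a fitted effect of over 65% in size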
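HTRF cAMP measurement after 30 min RT detection following 30 min, 37C compound treatment alongside […] (added as 300 uM solution) in G418-selected cells seeded at 2000/well and grown 16–24 h.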
D2 potentiator: potentiates the human D2 dopamine receptor allosterically; hit rate 0.23% among 360,000; DiscoveRx D2 beta-arrestin cells, luminescence, 90 min; 100% = 57 uM dopamine signal; potentiation, % (concentration not given with the values); active = potentiation of 50% or more; inconclusive = 30% to 50%; inactive = 30% or less;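 note: compound concentration not given in the record; tested on top of an EC20 dose of dopamine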
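PathHunter D2 cells, attached overnight at 37 deg C, received compound in DMSO plus dopamine at EC20 (50 nM final) for 90 min at 37 deg C. Beta-arrestin recruitment was read as luminescence after 1 h with detection reagent at ambient temperature.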
gsp ag: agonists of gsp mutant (McCune-Albright syndrome); gsp mutant cells, cAMP HTRF, 30 min; control for the full effect not named in the record; Potency, µM (highest dose often 76.9 µM), inactives show top-dose activation (cAMP increase), usual class: activators; hit rate 0.13% among 340,000; AID 624287; active = well fitted activation curve with a large enough effect; inconclusive = small, poorly fitted or top-dose-only effect, or another doubt; inactive = no such curve, though single readings can be large or run the other way; cell line not stated here;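 note: phosphodiesterase inhibitor Ro 20-1724 added with compounds to block cAMP breakdown; potency is the fitted concentration of half-maximal effect; nearly all actives have a fitted effect of over 60% in size; about a fifth of the inactives were tested at one dose only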
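Cells in DMEM/10% FBS with G418 were pretreated with compounds in DMSO plus […] (300 uM stock) for 30 min at 37C. cAMP was measured by HTRF (cAMP-d2 plus anti-cAMP antibody-K) after 30 min at room temperature.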
Menin-MLL FL inh: menin-MLL binding inhibition, fluorescein peptide; 290,000 tested, under 10 active; FP activity change, % at 61.4 µM; Fluorescence polarization, fluorescein-MLL peptide displacement from menin; inconclusive = falling polarisation curve, or a change in total fluorescence; inactive = total fluorescence flat and polarisation flat or rising; no compound was filed as active; the % refers to the polarisation; negative = inhibition;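 note: % of control where 0% means no effect; inhibitors lower the polarisation; unlabelled MLL peptide was the positive control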
ClpP mod: qHTS Assay for Activators of ClpP | ATP-dependent Clp protease proteolytic subunit (Bacillus subtilis (strain 168)), P80244 | Potency, µM (highest dose often 57.5 µM), inactives show top-dose activity change, negative = active | AID 651965, 2013 | hit rate 1.9% among 340,000 | purified B. subtilis ClpP, FRET peptide cleavage, 20 min; active = well fitted falling curve with a large enough effect; inconclusive = small, poorly fitted or top-dose-only effect; inactive = no such curve, though single readings can be large or run the other way; note: potency is the fitted concentration of half-maximal effect; the source files actives as falling curves though it sought activators and does not explain the sign; nearly all actives have a fitted effect of over 65% in size; many hits overshoot -100%
Target sequence (P80244 whole entry, looked up): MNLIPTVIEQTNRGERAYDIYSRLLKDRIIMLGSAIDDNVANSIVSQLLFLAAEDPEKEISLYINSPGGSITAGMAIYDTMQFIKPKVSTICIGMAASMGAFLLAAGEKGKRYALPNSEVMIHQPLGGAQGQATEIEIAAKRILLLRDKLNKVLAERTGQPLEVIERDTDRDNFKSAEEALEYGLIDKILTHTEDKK
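FRET quenching reversal measured ClpP activation: 10 microg/mL B. subtilis ClpP at pH 8 with the FRET-FV decapeptide, read at 430 nm after 320 nm excitation. The 20-min minus 0-min signal was scaled between DMSO/no-enzyme wells and ADEP (5.8 microM final).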
* hit, by the source's call; ? = inconclusive; · = no result given; [ ] = dose if it differs, or a comment.

The line under a structure holds: TRPV1 PAM	Sfp inh	gsp antagonist	D2 potentiator	gsp ag	Menin-MLL FL inh	ClpP mod
- COc1ccc(CC(=O)Nc2nc3n(n2)C(c2ccccc2)CC(=O)N3)cc1OC (stereo not given)
    4.7	8.8%	8.2%	-7.2	-47.7%[inhibitor]	-2.5	2.0%
- COc1cc(NC(=O)CCc2nnc3ccc(N4CCN(c5cccc(OC)c5)CC4)nn23)cc(OC)c1
    17.4	10.2%	10.3%	-4.5	?	·	-1.1%
- CCCn1c(=O)c2c(nc3n2CCN3Cc2ccco2)n(C)c1=O
    8.3	-2.2%	-0.8%	-2.2	?	-7.1	-2.3%
- CC(=O)N(/N=C1\Sc2ccccc2C1=O)c1cccc(C)c1
    ?	9.8%	-0.9%	-44.4	4.3%	?	1.0%
- CC(=O)Nc1ccc(S(=O)(=O)NC2(C(F)(F)F)C(=O)Nc3c2c(=O)[nH]c(=O)n3C)cc1 (stereo not given)
    5.1	3.4%	13.1%	-5.5	4.7%	-2.1	-3.9%
- CCOC(=O)C1=C(C)NC2=C(C(=O)C(C(=O)OC)C(C)C2)C1c1ccc(OC)c(O)c1 (stereo not given)
    ·	-2.5%	-3.6%	19.6	0.3%	-0.3	-2.2%
- CCCc1cc(=O)oc2c(C)c(OC(C)C(=O)NCCN3CCOCC3)ccc12 (stereo not given)
    8.8	8.6%	-9.4%	-20.8	?	·	3.7%
- COC(=O)c1cc(-c2ccccc2)nc2nc(SC)[nH]c(=O)c12
    21.1	7.5%	5.7%	-7.2	8.1%	0.5	3.7%
- CCN(CC)C(=O)CCSc1nnc(-c2ccco2)o1
    1.2	19.4%	14.3%	17.5	-0.6%[15.4 µM]	1.1	·
- S=C(Nc1ccccn1)NC1CCCC1
    -13.3	44.7µM*	11.8%	-0.1	?	-2.9	0.3%
- O=C1COc2ccc3ccccc3c2CN1
    -4.6	29.2%	-9.0%	-5.3	-0.6%	-0.4	-2.6%
- O=C1NC(c2ccccc2)=N/C1=C/c1ccco1
    1.7	?	3.1%	-1.7	14.6%[15.4 µM]	9.7	·
- C=CCc1cccc(CNc2nc3ccccc3n2CCC)c1O
    -7.0	10.6%	-24.5%	-10.7	-1.1%	-0.3	2.1%
- Cc1nnc(SCc2cc(=O)[nH]c(N3CCN(C)CC3)n2)s1
    -5.2	28.8%	14.0%	-0.9	19.6%	-1.9	56.0%
- Cc1cc(OC(=O)c2ccccc2Br)cc(=O)n1C
    -7.8	-6.4%	-26.1%	3.1	2.9%	2.5	5.6%
- O=C(Nc1cccc(S(=O)(=O)N2CCCC2)c1)c1cc(-c2ccccn2)nc2ccccc12
    9.0	9.6%	-5.8%	3.0	23.3%	0.3	·
- Cc1noc(C)c1S(=O)(=O)N1CCC(C(=O)N2CCN(c3ccc(Cl)cc3)CC2)CC1
    6.1	11.7%	-25.3%	3.2	2.1%	2.8	-4.0%
- O=C(O)c1oc2ccccc2c1CSCc1ccccc1
    -4.9	12.8%	1.2%	-24.2	-3.4%[15.4 µM]	-0.7	0.2%
- COc1cc(C(=O)NC(=S)Nc2ccccc2[N+](=O)[O-])cc(OC)c1OC
    2.8	79.4µM*	-7.9%	-15.1	-27.6%	0.2	0.4%
- Cc1ccc(N(CCC#N)C(=O)CSc2nnc3ccccn23)cc1
    -0.7	·	4.7%	-0.9	?	·	-12.2%
- CCOC(=O)c1c(C)[nH]c(C(=O)OC(C)C(=O)NC2CCCCC2C)c1C (stereo not given)
    -17.6	·	-7.2%	-0.3	23.3%	·	0.8%
- COc1ccc(CCNC(=O)CSc2nc(C)cs2)cc1
    -4.1	13.3%	13.5%	-12.6	-26.5%	1.4	-2.4%
- CCOc1ccc(-c2nnc(SCC(=O)N(CC)CC)n2N)cc1
    -4.5	8.6%	4.3%	-9.5	-47.3%[inhibitor]	3.5	-0.1%
- CC1(C)CC2CC(C)(CN2C(=O)c2ccccc2)C1 (stereo not given)
    1.2	0.5%	-0.8%	-0.4	?	5.8	-1.3%
- O=C(O)CCC(NC(=O)OCc1ccccc1)C(=O)O (stereo not given)
    1.3	11.8%	-4.0%	8.5	-3.6%	5.9	-1.0%
- O=C(Nc1nnc(-c2cccnc2)o1)c1ccccc1Cl
    -9.9	-12.0%	9.7%	-2.9	10.3%[15.4 µM]	-3.9	?
- Cc1ccc(NC(=O)CSC(C)C(=O)OCC(=O)N2CCN(C(=O)c3ccco3)CC2)cc1 (stereo not given)
    12.6	·	1.5%	9.9	-7.2%	·	-1.1%
- O=C(CCc1nc2ccccc2[nH]c1=O)OCC(=O)N1CCc2ccccc21
    6.4	-3.1%	-3.6%	-18.6	-30.5%[inhibitor]	1.2	-12.0%
- Cc1ccn2cc(C(=O)N3CCCC(Nc4ccc(F)cc4)C3)nc2c1 (stereo not given)
    -11.8	14.3%	-6.4%	-7.0	-43.4%[inhibitor]	0.7	-2.1%
- CCCS(=O)(=O)N1CCCC(C(=O)NCCCN(C)Cc2ccccc2)C1 (stereo not given)
    8.2	10.9%	7.6%	13.9	-24.7%	3.9	-1.1%
- O=C(O)c1ccc2c(c1)CCC2
    5.8	29.5%	1.2%	-1.1	-15.4%[15.4 µM]	-3.8	·
- c1coc(C2=NC(c3ccco3)C(c3ccco3)N2)c1 (stereo not given)
    ·	·	5.8%	-10.4	23.4%	·	·
- Cc1nc(SCC(=O)Nc2ccc(C)c(F)c2)c2oc3ccccc3c2n1
    19.6	9.5%	31.2%[activator]	-7.5	?	4.9	-2.8%
- Cc1cc(OCC(=O)Nc2ccncc2)ccc1Br
    2.8	17.8%	-4.9%	-12.0	-2.3%	-3.9	1.7%
- Fc1ccc(N2CCN(C(c3cccs3)c3nnnn3C3CCCC3)CC2)cc1 (stereo not given)
    17.4	10.1%	2.3%	-16.7	-20.4%	2.5	-7.2%
- Cc1cccc(C(=O)O/N=C(\N)Cc2cccc3ccccc23)c1
    15.4	7.5%	-0.9%	?	8.3%	?	-0.1%
- Cc1ccnc(N2CCC(C(=O)Nc3nnc(C)s3)CC2)n1
    19.0	-1.3%	3.9%	3.4	-33.4%[inhibitor]	0.9	?
- COc1ccccc1C1=NOC(COC(=O)c2ccc([N+](=O)[O-])cc2)C1 (stereo not given)
    -4.5	4.9%	-9.5%	3.7	-4.8%	3.9	·
- O=C(O)C(Oc1ccc2c(c1)oc(=O)c1ccccc12)c1ccccc1 (stereo not given)
    11.9	20.9%	-3.6%	-3.6	-5.8%	0.0	4.2%
- CC(C)OC(=O)CSc1nnc(-c2cnccn2)n1-c1ccc(Cl)cc1
    -2.6	-7.7%	-7.1%	0.3	-18.6%	-0.6	-1.5%
- COc1ccc(-c2cc(C(F)(F)F)nc(SCCC(=O)N3CCOCC3)n2)cc1
    4.2	19.9%	2.1%	-16.7	13.2%	0.7	25.1µM*
- O=C(COc1ccccc1Cl)Nc1ccccc1C(=O)N1CCCCC1
    -12.4	7.3%	-4.8%	-10.9	-3.1%	·	-0.4%
- C=CCn1c(=N)c(S(=O)(=O)c2ccc(C)c(C)c2)cc2c(=O)n3ccccc3nc21
    2.5	-20.8%	-4.5%	-10.0	-79.5%[inhibitor]	-3.1	-10.4%
- COc1ccc(OCc2ccc(-c3nc4ccccc4c(=O)n3N)o2)cc1
    15.5	5.9%	-19.5%	-8.2	18.3%	1.1	-0.3%
- COC(=O)N(C)C[C@@H]1OCc2cnnn2CCCC(=O)N([C@@H](C)CO)C[C@H]1C
    ·	·	·	6.6	?	·	2.0%
- O=C(Nc1ccc(F)cc1)Nc1ccccc1C(=O)NCCN1CCNC1=O
    ·	20.7%	14.6%	2.1	0.7%[15.4 µM]	3.8	·
- COc1ccc(C(=O)N(NC(=O)Oc2ccccc2)C(C)(C)C)cc1
    13.8	13.4%	7.6%	-4.6	-0.3%[15.4 µM]	-1.9	-0.9%
- O=C(Cn1nc(Cc2cccnc2)c2ccccc2c1=O)NCc1ccc(F)cc1
    ·	15.9%	4.8%	-10.6	-16.2%	0.4	-6.3%
- O=C(Nc1ccc(F)cc1)N1CCN(c2nc3ccccc3s2)CC1
    26.6	3.4%	-8.6%	5.1	-0.9%	-0.9	-0.4%
- COc1cccc(CN2CCNC(=O)C2CC(=O)NCc2cn3cccc(C)c3n2)c1OC (stereo not given)
    -0.1	2.0%	10.3%	-6.2	-11.3%[15.4 µM]	2.9	·

(continued)
The line under a structure holds: TRPV1 PAM	Sfp inh	gsp antagonist	D2 potentiator	gsp ag	Menin-MLL FL inh	ClpP mod
- CC(C)CC(=O)N1CCN(c2ccc(NC(=O)c3ccco3)cc2)CC1
    2.3	16.3%	-7.5%	-13.7	-69.2%[inhibitor]	·	?
- CNC(=O)c1c(NC(=O)c2ccc3ncsc3c2)sc(C)c1C
    -5.3	·	-4.6%	-19.8	0.4%[15.4 µM]	·	-2.9%
- CC1CCCN(C(=O)c2ccc3c(=O)n(C4CCCC4)c(=S)[nH]c3c2)C1 (stereo not given)
    ?	-19.8%	?	0.8	?	6.0	1.0%
- O=C(NC12CC3CC(CC(C3)C1)C2)N1CCN(c2ccccc2)CC1
    -7.5	18.3%	-15.2%	-10.5	-37.6%[inhibitor]	-0.6	·
- C=CCn1c(SCC(=O)N(C)C2CCS(=O)(=O)C2)nnc1-c1ccccc1 (stereo not given)
    1.4	·	3.2%	-1.9	26.7%[15.4 µM]	·	·
- COC(=O)c1ccc(NC(=O)COc2ccc3c(c2)OCO3)cc1
    -0.4	7.4%	0.1%	-11.4	12.7%	-14.9	·
- O=C(NCc1cccnc1)/C(=N\O)c1ccccc1
    -3.5	9.2%	15.7%	-3.7	10.0%	1.9	1.0%
- CC1=C(OC(=O)c2ccccc2)C(C)(C)C(c2ccc(Br)cc2)OC1=O (stereo not given)
    -18.7	6.3%	-6.6%	-27.4	10.5%	1.0	-1.6%
- Cc1cccnc1Oc1ncccc1N
    ·	·	-2.1%	-2.7	?	·	-0.5%

Outcome played no part in choosing rows; 5.1% or so of the library scored in one or more.
